From PubChem BioAssay
AID923 = qHTS Assay for Allosteric/Competitive Inhibitors of Caspase-1: Spectroscopic Profiling in AFC Spectral Region; Potency, µM (series often up to 57.5 µM), without a hit: top-dose fluorescence increase, most hits filed as activators; actives 1.1% (n = 75,000); AID 923, 2007; compound fluorescence, AFC spectral region (405/520 nm); almost no hit is shown here; active = well fitted activation curve with a large enough effect; inconclusive = small, poorly fitted or top-dose-only effect;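 also: potency is read from the fitted curve at half-maximal effect; 0% is about no effect; scaled to a free AFC standard on each plate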
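Compound autofluorescence profiled at 405 nm ex/520 nm em during kinetic caspase 1 run (50 nM enzyme, 5 uM Ac-WEHD-AFC, HEPES pH 7.5, 10 mM DTT). Titration up to 57 uM; baseline from regression intercept, normalized to AFC standard curve.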
Resorufin autofl = compound fluoresces in the resorufin spectral region | actives 0.04% (n = 59,000) | max dye-equivalent concentration, M | Compound fluorescence, resorufin region 547/598 nm, buffer; hits give high values | AID 588; active = above 10 nM dye equivalent; inconclusive = 1 to 10 nM; inactive = 1 nM or less; a few of its hits are not listed in these tables; also: highest value over a series up to 38 µM
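Read-out: intrinsic compound fluorescence at ex 547/em 598 nm after 15 min at RT in pH 8.0 Tris (100 mM). Values expressed as resorufin-equivalent concentration from per-plate standard series.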
TSHR agonist = activates the human thyroid stimulating hormone receptor; P16473; HEK293-CNG-TSHR cells (CNG channel as cAMP sensor), membrane potential dye, cAMP; actives 0.48% (n = 73,000); Potency, µM (doses to about 57.1 µM), for inactives: top-dose activation, hits mostly activators; active = well fitted activation curve of enough size with the parental cells flat; inconclusive = any curve in the parental cells; inactive = parental cells flat and receptor cells flat or falling; also: potency is read from the fitted curve at half-maximal effect; % of control where 0% means no effect; weak receptor curves with flat parental cells got no call and are not listed
Target sequence (P16473 whole entry, looked up): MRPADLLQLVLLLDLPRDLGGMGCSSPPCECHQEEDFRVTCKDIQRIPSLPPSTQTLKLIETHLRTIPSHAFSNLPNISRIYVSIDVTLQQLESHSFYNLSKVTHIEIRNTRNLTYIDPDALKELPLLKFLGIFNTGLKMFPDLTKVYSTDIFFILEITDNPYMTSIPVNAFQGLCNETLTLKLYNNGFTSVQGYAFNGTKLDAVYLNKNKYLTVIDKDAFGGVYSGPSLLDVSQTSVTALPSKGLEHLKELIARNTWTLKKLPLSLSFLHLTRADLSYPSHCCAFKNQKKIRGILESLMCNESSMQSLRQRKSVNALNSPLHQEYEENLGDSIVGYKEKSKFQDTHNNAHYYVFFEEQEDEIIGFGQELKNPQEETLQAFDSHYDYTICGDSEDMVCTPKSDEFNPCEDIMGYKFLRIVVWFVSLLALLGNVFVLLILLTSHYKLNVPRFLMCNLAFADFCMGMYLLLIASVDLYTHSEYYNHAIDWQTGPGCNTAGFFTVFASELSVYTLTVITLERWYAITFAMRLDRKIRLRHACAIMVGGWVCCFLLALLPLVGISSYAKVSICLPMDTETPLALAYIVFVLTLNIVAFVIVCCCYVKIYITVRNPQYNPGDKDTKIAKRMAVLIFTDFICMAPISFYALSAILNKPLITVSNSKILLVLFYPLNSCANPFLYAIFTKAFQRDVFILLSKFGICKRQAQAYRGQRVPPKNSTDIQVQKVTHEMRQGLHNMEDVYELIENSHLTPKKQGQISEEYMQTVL
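cAMP rise detected as CNG-channel membrane depolarization by fluorescent dye (emission 590 nm), 30 min after compound, following 60 min dye loading containing 100 uM RO 20-1724 at room temperature. Cells: TSHR/CNG HEK 293, with parental CNG HEK 293 as control.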
A647 autofl = compound autofluorescence in A647 spectral region; Compound fluorescence, A647 channel (570/671 nm), Tris buffer; max dye-equivalent concentration, M; 59,000 tested, under 10 active; AID 592; active means above 1 µM dye equivalent; inconclusive means 0.1 to 1 µM; inactive means 0.1 µM or less;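 also: values scaled relative to a standard on each plate; highest value over a series up to 38 µM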
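Spectral profiling of library compounds in pH 8.0 Tris: 15 min room-temperature incubation, single ex/em pair (570/671 nm), response normalized to Alexa 647 equivalents.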
A488 fluor = A488 region autofluorescence. compound autofluorescence, A488 spectral region, dye equivalency; hits give high values. max dye equivalency, M. actives 0.1% (n = 59,000). AID 591; active = above 10 nM dye equivalent; inconclusive = 1 to 10 nM; inactive = 1 nM or less; about half of its hits are not listed in these tables;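 also: highest value over a series up to 38 µM; compound alone in buffer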
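Autofluorescence read at ex 480/em 540 nm after 15 min RT in 100 mM Tris pH 8.0; compound signal normalized to A488 standard series on each plate, reported as dye-equivalent concentration at each test concentration.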
Starred values were filed as active, the others as inactive; i = inactive; ? = inconclusive; / = no result given; & = joins results of further samples; [ ] = dose if it differs, or a comment. Not all compounds are listed (hit frequency here may not be typical).

SMILES	AID923	Resorufin autofl	TSHR agonist	A647 autofl	A488 fluor
CC(=O)c1ccc(-n2nncc2C(C)(C)C)cc1	0.5%	i	4%	1.2e-08	i
CCn1c(SCC(=O)Nc2nc(-c3ccccc3)cs2)nnc1-c1ccccc1	1.4%	i	?	5.8e-09	i
C/C(CCN1CCc2nc(-c3ccccc3)c(-c3ccccc3)cc2C1)=N\O[C@@H](C)c1cc(-c2c(C)cc(C)cc2C)no1	-2.6%[11.5 µM]	/	2%[11.4 µM]	/	/
CSCCC(N=CC1=C(O)CC(C)(C)CC1=O)C(=O)O (stereo not given)	1.3%	/	0%	/	/
CC(=O)c1ccc(NC(=O)C2CCCN2S(=O)(=O)c2ccc(F)cc2)cc1 (stereo not given)	2.4%	/	?	/	/
Nc1cc(Cl)c([N+](=O)[O-])cc1O	2.5%	/	-4%	/	/
COc1ccc(N2C(=O)c3ccc(NC(C)=O)cc3C2=O)cc1	0.8%	i	-4%	1.7e-09	i
COc1ccc(-n2c(Cc3cc(=O)[nH]c(=O)[nH]3)nnc2SCC(=O)N2CCC(C)CC2)cc1	-0.1%	/	4%	/	/
COc1ccc(-n2nc3cc(C)c(NC(=O)c4cccnc4)cc3n2)cc1	-0.1%	i	?	8.9e-09	i
Nn1c(CSc2ccccn2)nc2ccccc2c1=O	0.8%	i	-1%	1.7e-09	i
CCOC(=O)N1CCC(NC(=O)c2cnn3ccccc23)CC1	-0.7%	/	1%	/	/
CCCOc1cccc(C(=O)N(Cc2cccs2)C2CCS(=O)(=O)C2)c1 (stereo not given)	-0.7%	i	?	1.4e-08	i

4 entries from above, with each value named.
> CCCOc1cccc(C(=O)N(Cc2cccs2)C2CCS(=O)(=O)C2)c1 (stereo not given)
- AID923: -0.7%
- Resorufin autofl: i
- TSHR agonist: ?
- A647 autofl: 1.4e-08
- A488 fluor: i

> Nn1c(CSc2ccccn2)nc2ccccc2c1=O
- AID923: 0.8%
- Resorufin autofl: i
- TSHR agonist: -1%
- A647 autofl: 1.7e-09
- A488 fluor: i

> CCn1c(SCC(=O)Nc2nc(-c3ccccc3)cs2)nnc1-c1ccccc1
- AID923: 1.4%
- Resorufin autofl: i
- TSHR agonist: ?
- A647 autofl: 5.8e-09
- A488 fluor: i

> COc1ccc(N2C(=O)c3ccc(NC(C)=O)cc3C2=O)cc1
- AID923: 0.8%
- Resorufin autofl: i
- TSHR agonist: -4%
- A647 autofl: 1.7e-09
- A488 fluor: i

Other compounds follow.
SMILES	AID923	Resorufin autofl	TSHR agonist	A647 autofl	A488 fluor
CCOC(=O)C1CCCN(C(=O)c2cn(C)c(=O)c3cc(OC)c(OC)cc23)C1 (stereo not given)	-0.8%	i	1%	2.3e-08	i
Cc1cccc(Cc2c(C)nc3nc(SCC(=O)NCc4ccco4)nn3c2C)c1	0.6%	i	?	1.6e-08	i
O=C(OCC(=O)c1cccs1)c1ccc(NC(=O)c2ccco2)cc1	0.4%	i	-6%	1e-09	i
COc1ccc(OC)c(NC(=O)CS(=O)(=O)c2ccccc2)c1	-1.3%	i	4%	2.4e-09	i
COc1ccc2c(OC)c3ccoc3nc2c1OC	-2.7%	i	15%	1e-09&1.1e-08	i
CC(=O)c1c(OCC(=O)O)ccc2c(C)cc(=O)oc12	/	i	/	1e-09	i
COc1ccc(Nc2nc(N)nc(CN3CCc4ccccc4C3)n2)cc1	1.0%	/	2%	/	/
CCOC(=O)c1c(C)oc2cc(Br)c(OC)cc12	5.3%	/	5%	/	/
Cc1nnc(SCC(=O)Nc2ncc(Cc3ccc(F)cc3)s2)n1N	0.9%	i	-19%	1.1e-09	i
O=C1C(=O)c2ccccc2C(O)=C1C(CCc1ccccc1)C1=C(O)c2ccccc2C(=O)C1=O	-4.7%[11.5 µM]	i	-9%[11.4 µM]	1e-09	i
O=C(Cn1nnc(-c2cc(Cl)ccc2-n2cnnn2)n1)N1CCCc2ccccc21	-0.4%	i	0%	9.7e-09	i
CC1(C)CC(=O)C2=C(C1)N=C1SCCC(=O)N1C2c1ccccc1 (stereo not given)	5.7%	i	?	5.7e-09	i
COC(=O)C1=C(C)Nc2c(c(=O)n(C)c(=O)n2C)C1c1cccs1 (stereo not given)	-0.1%	i	-6%	2e-09	i
CCCCOC(=O)Cc1c(O)c2ccccc2[nH]c1=O	-1.0%	/	-6%	/	/
CC(=O)c1ccc(N2CCN(C(=O)c3cc(-c4ccc5c(c4)OCO5)nc4ccccc34)CC2)cc1	6.1%	i	20%	2e-09	i
COC(=O)c1ccccc1NC(=O)c1cc(-c2cccc(OC)c2)on1	2.1%	i	12%	6.6e-09	i
Cc1cccc(NC(=O)C2CCN(c3nc(C)cc(C)n3)CC2)c1	1.3%	i	-3%	1e-09	i
C=CCOC(=O)COCCC(C)C	-1.2%	/	1%	/	/
O=C(CC1(O)C(=O)Nc2ccccc21)c1cccnc1 (stereo not given)	-0.7%	i	-4%	1.3e-09	i
COC(=O)c1ccc(COc2ccc3c4c(c(=O)oc3c2)CCC4)o1	0.9%	i	?	1e-09	i
CC(=O)c1cc2c(O)c(O)ccc2o1	1.8%	i	5%	2.3e-08	i
Cc1cc(C)c(S(=O)(=O)Nc2ccc[nH]c2=O)c(C)c1	0.0%	i	/	1e-09	i
Cc1cc2c(nn1)CCc1nonc1-2	-0.8%	i	-2%	1e-09	i
O=C(CSc1nnc(-c2ccco2)o1)NC(=O)C1COc2ccccc2O1 (stereo not given)	2.2%	i	4%	2.5e-08	i
CCC(Sc1nc2ccccc2c(=O)n1CCN1CCOCC1)C(=O)NCc1cccnc1 (stereo not given)	-1.0%	i	21%	1.9e-08	i
CCc1c(C)nc(SCC(=O)Nc2cccc(Br)c2)[nH]c1=O	-0.6%	i	11%	1e-09	i
CCN1C(=O)[C@H]2[C@H]3[C@H](O)[C@H](O)C/C(=N/O[C@@H](C)c4cn([C@H]5COC[C@H]5O)nn4)[C@@H]3CC[C@@H]2C1=O	5.9%[11.5 µM]	/	7%[11.4 µM]	/	/
CC(C)OP(=O)(c1ccc(N(C)C)cc1)C(O)c1ccncc1 (stereo not given)	0.5%	i	1%	1e-09	i
O=C1CCC(C(=O)NCCCn2ccnc2)N1 (stereo not given)	1.0%	i	3%	2.4e-08	i
Cc1cc(=O)[nH]c(SCC(=O)N2c3ccccc3CC2C)n1 (stereo not given)	0.7%	i	8%	1e-09	i
Cn1c(=O)c(C(=O)c2ccccc2)nc2ccccc21	5.0%	i	7%	1e-09	i
CCOc1ccc(CCNC(=O)C2CCN(c3nn4c(=O)cc(C)nc4s3)CC2)cc1OCC	-0.2%	i	3%	3e-08	i
COc1ccc(NC(=O)c2cc(-c3cccs3)on2)cc1OC	-1.0%	i	-5%	4.4e-09	i
c1ccc2c(-n3cnnn3)cccc2c1	-0.3%	i	5%	3e-09	i
CCn1c(COc2ccc3c(c2)OCO3)nnc1SCC(=O)c1ccccc1	-1.0%	i	41%	1.2e-08	i
COc1ccc(CC(=O)NCc2nnc(SCCOc3ccccc3)n2C)cc1	0.4%	i	-4%	2.7e-08	i
COc1ccc(Cn2c(=O)[nH]c3cc(C(=O)NCCCN4CCCCC4)ccc3c2=O)cc1	0.7%	i	-5%	3.6e-09	i
O=C(O)C1CCCCC1C(=O)Nc1cccc(C(=O)N2CCCCC2)c1 (stereo not given)	1.2%	i	7%	3.1e-08	i
Cc1ccc(S(=O)(=O)Nc2ccc3oc(=O)sc3c2)c(C)c1	2.2%	i	2%	2.5e-08	i
CCCC(=O)Nc1ccc2nc(SCC(=O)Nc3nccs3)sc2c1	0.1%	i	-17%	1e-09	i
Cn1c(=O)c2cc(S(=O)(=O)Nc3cccc(F)c3)ccc2n(C)c1=O	4.8%	i	8%	1.5e-09	i
CCS(=O)(=O)n1nc(-c2ccc(Cl)cc2)nc1N	-1.5%	/	-10%	/	/
O=C(NCc1ccco1)C1CCN(c2nnc(-n3cccc3)s2)CC1	2.1%	/	4%	/	/
COCCn1c(=O)c(-c2cccc(Cl)c2)nc2cncnc21	13%	i	-2%	1e-09	i
CC1CCC2C(=O)N3C(CCC(C)[C@@H]3c3ccc(-c4ccco4)cc3)C(=O)N2C1c1cccc(N2CCCC2=O)c1 (stereo not given in full)	0.5%[11.5 µM]	/	-8%[11.4 µM]	/	/
CNC(=O)N(O)C1N(C)C(=O)N(Cc2ccccc2)C1(C)C (stereo not given)	3.7%	i	3%	1e-09	i
CC(NC(=O)c1cccc(N2CCCC2=O)c1)c1ccc2c(c1)OCCO2 (stereo not given)	0.2%	i	8%	4.5e-09	i
O=C(COn1nnc2ccc(Cl)cc21)NCc1ccccc1	0.1%	i	-1%	2.4e-08	i
CCCCN(C)CCCNC(=O)CCn1nc(-c2ccccc2)ccc1=O	1.0%	i	4%	1e-09	i
O=c1[nH]nc2c3ccccc3cnn12	-0.1%	i	-1%	1e-09	i
Cc1ccc(C)c(N2CCN(CCCNC(=O)Cn3cc4c(n3)CCC(C)C4)CC2)c1 (stereo not given)	-0.3%	/	?	/	/
Cc1ccc(C(=O)N2CCN(C(=O)CN3CCCC3)C2)cc1	0.5%	i	1%	1e-09	i
CCn1c(NCc2ccco2)nc2c1c(=O)n(C)c(=O)n2C	-0.5%	i	15%	1e-09	i
COc1ccc(OC)c(C(c2nnnn2C2CCCC2)N2CCN(c3ccccc3F)CC2)c1 (stereo not given)	1.6%	i	?	1.5e-08	i
O=C(NCC1CCCO1)C1CCN(S(=O)(=O)N2CCCC2)CC1 (stereo not given)	0.2%	i	0%	1e-09	i
CCOC(=O)c1c(-c2ccc(C)o2)csc1NC(=O)COC(=O)c1cccs1	-0.1%	i	?	7.5e-09	i
Cc1nnc(SCC(=O)N2CCc3ccccc32)n1-c1ccccc1	0.2%	i	6%	3e-08	i
CC(C)(C)C(=O)N=C1SC2CS(=O)(=O)CC2N1c1ccc2c(c1)OCO2 (stereo not given)	0.3%	i	-6%	1e-09	i
COCCCN1C(=O)c2ccccc2C1C(=O)NC1CCCCCC1 (stereo not given)	1.4%	i	?	1e-09	i
C=CCOc1ccc(/C(O)=C2\C(=O)C(=O)N(CCCOC)C2c2ccncc2)cc1 (stereo not given)	1.8%	i	-3%	2.6e-09	i

Look-ups from the list.
CC1(C)CC(=O)C2=C(C1)N=C1SCCC(=O)N1C2c1ccccc1 (stereo not given) in AID923 reads 5.7%
CSCCC(N=CC1=C(O)CC(C)(C)CC1=O)C(=O)O (stereo not given) in TSHR agonist reads 0%

Remaining list, next part
SMILES	AID923	Resorufin autofl	TSHR agonist	A647 autofl	A488 fluor
CCOC(=O)Cc1csc(SCC(=O)Nc2sc3c(c2C(N)=O)CCC3)n1	1.7%	i	?	1e-09	i
O=C(O)CCCCNS(=O)(=O)c1ccc(Cl)c(C(F)(F)F)c1	0.5%	i	-1%	2.2e-08	i
Cc1csc2nc(CSc3nncn3-c3ccccc3)c(Br)n12	3.6%	i	/	1e-09	i
Cn1c(Cc2csc(N)n2)nnc1SCC(=O)NCc1ccccc1	0.1%	i	14%	5.5e-09	i
CCC1CCc2sc(C(=O)O)cc2C1 (stereo not given)	0.3%	i	21%	3.9e-08	i
C=CCc1cccc(CNc2c(C)n(C)n(-c3ccccc3)c2=O)c1O	-0.4%	i	28%	3.3e-09	i
O=C(c1cc(C(F)(F)F)cc(C(F)(F)F)c1)N1CCC2(CC1)CN(c1ccccc1)C2	-2.6%	i	2%	1e-09	i
CCc1c(O)nc(N2CCN(Cc3ccccc3)CC2)[nH]c1=O	0.4%	i	4%	1.1e-08	i
CC(=N\O)/C(CN(C)C)=N/O	/	i	/	2.3e-08	i

Whole records from above:
CCc1c(O)nc(N2CCN(Cc3ccccc3)CC2)[nH]c1=O as listed: AID923: 0.4%; Resorufin autofl: i; TSHR agonist: 4%; A647 autofl: 1.1e-08; A488 fluor: i
Cn1c(Cc2csc(N)n2)nnc1SCC(=O)NCc1ccccc1 as listed: AID923: 0.1%; Resorufin autofl: i; TSHR agonist: 14%; A647 autofl: 5.5e-09; A488 fluor: i
